A1 apoptosis 2 = blocks A1, raising caspase activity. MEF A1-2A-BIM cells, caspase-Glo luminescence, 3 h; percent of clofoctol response, DMSO zero. caspase activation, % (test concentration not listed). 24,000 tested, under 10 active; in the data active = caspase activation above about 5.9%;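 note: wells of about 30 µL received 50 nL stock; the first replicate is given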
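Material: mouse embryonic fibroblasts co-expressing A1 and BIM (A1-2A-BIM), primed for A1 dependence / Quantity: 2500 cells/well / Buffer or medium: RPMI-1640 growth medium with 10% FBS / Doses: 50 nL compound per well, pinned / Schedule: 3 h compound exposure at 37 °C / Signal: Caspase-Glo luminescence (DEVD substrate) / Measure: Caspase-3/7 activation, seen as rise in luminescence signal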
Starred values were filed as active, the others as inactive; & = joins results of further samples.

SMILES	A1 apoptosis 2
C[C@@H]1CN([C@@H](C)CO)C(=O)c2cccc(NC(=O)Nc3ccc4c(c3)OCO4)c2O[C@H]1CN(C)S(=O)(=O)c1cccs1	-0.1
C[C@@H]1CN([C@@H](C)CO)C(=O)c2cc(NC(=O)CCCN(C)C)ccc2O[C@@H]1CN(C)C(=O)NC1CCCCC1	-1.3
C[C@@H]1CN([C@@H](C)CO)C(=O)c2cccc(NC(=O)Nc3ccc4c(c3)OCO4)c2O[C@@H]1CN(C)S(=O)(=O)c1ccc(Cl)cc1	0.2
Cc1ccc(S(=O)(=O)Nc2ccc3c(c2)C(=O)N([C@@H](C)CO)C[C@@H](C)[C@@H](CN(C)C)OCCCC[C@H](C)O3)cc1	-0.6
Cc1ccc(S(=O)(=O)Nc2ccc3c(c2)CC(=O)N([C@@H](C)CO)C[C@@H](C)[C@H](CN(C)Cc2ccc(C(F)(F)F)cc2)O3)cc1	-0.3
COc1ccccc1NC(=O)N(C)C[C@@H]1OCc2cn(nn2)CCCC(=O)N([C@@H](C)CO)C[C@H]1C	0.2
CNC[C@H]1Oc2ccc(NC(=O)Nc3ccc4c(c3)OCO4)cc2CC(=O)N([C@H](C)CO)C[C@H]1C	-0.7
C[C@@H]1CCCCO[C@@H](CN(C)C(=O)Cc2ccccc2)[C@H](C)CN([C@@H](C)CO)C(=O)c2cc(NS(=O)(=O)c3cn(C)cn3)ccc2O1	-0.3
Cc1noc(C)c1S(=O)(=O)Nc1ccc2c(c1)CC(=O)N([C@H](C)CO)C[C@H](C)[C@@H](CN(C)S(=O)(=O)c1cccs1)O2	1.3
O=C(N[C@@H](Cc1ccccc1)Cn1cc(CN2C(=O)COC[C@H]2c2ccccc2)nn1)c1ccccc1	0.3
C[C@H](CO)N1C[C@H](C)[C@H](CN(C)C)Oc2ccc(NC(=O)c3ccncc3)cc2C1=O	0.6
CNC[C@@H]1Oc2ncc(-c3cccc(F)c3)cc2C(=O)N([C@H](C)CO)C[C@@H]1C	0.0
C[C@@H]1CN([C@@H](C)CO)C(=O)c2cc(NS(=O)(=O)c3cn(C)cn3)ccc2O[C@@H](C)CCCCO[C@H]1CN(C)S(=O)(=O)c1ccc(Cl)cc1	1.5
C[C@@H]1CN([C@@H](C)CO)C(=O)c2cc(NS(=O)(=O)c3ccccc3)ccc2O[C@H]1CN(C)C(=O)Nc1cccc2ccccc12	0.9
C[C@@H]1CCCCO[C@H](CN(C)S(=O)(=O)c2ccccc2)[C@H](C)CN([C@@H](C)CO)C(=O)c2cc(N(C)C)ccc2O1	-0.9
C[C@@H]1CCCCO[C@@H](CN(C)Cc2ccncc2)[C@H](C)CN([C@@H](C)CO)C(=O)c2cc(NC(=O)CCCCCC(=O)Nc3ccccc3N)ccc2O1	0.8
C[C@@H]1CCCCO[C@@H](CN(C)Cc2ccc(Cl)c(Cl)c2)[C@@H](C)CN([C@@H](C)CO)C(=O)c2cc(NC(=O)c3ccccc3)ccc2O1	-0.1
Cc1noc(C)c1NC(=O)Nc1cccc2c1O[C@H](CN(C)S(=O)(=O)c1cn(C)cn1)[C@H](C)CN([C@@H](C)CO)C2=O	0.2
C[C@H](CO)N1C[C@H](C)[C@H](CN(C)C(=O)Nc2ccc3c(c2)OCO3)Oc2c(NC(=O)c3ccncc3)cccc2C1=O	0.2
C[C@@H]1CN([C@H](C)CO)C(=O)Cc2cc(NC(=O)Nc3ccccc3)ccc2O[C@H]1CN(C)Cc1ccncc1	0.1
COc1ccc(-c2cnc3c(c2)C(=O)N([C@H](C)CO)C[C@H](C)[C@H](CN(C)S(=O)(=O)c2cccc(OC)c2)O3)cc1	0.3
COc1ccc(CN(C)C[C@@H]2Oc3c(NS(=O)(=O)c4cccs4)cccc3C(=O)N([C@H](C)CO)C[C@@H]2C)cc1	0.6
Cc1ccc(S(=O)(=O)N(C)C[C@@H]2Oc3ccc(NC(=O)Nc4cccc5ccccc45)cc3C(=O)N([C@H](C)CO)C[C@@H]2C)cc1	0.0
COc1ccc(NC(=O)N(C)C[C@@H]2OCCCC[C@@H](C)Oc3ccc(NC(=O)Nc4ccccc4)cc3C(=O)N([C@H](C)CO)C[C@H]2C)cc1	-0.4
C[C@@H]1CCCCO[C@@H](CN(C)Cc2ccncc2)[C@H](C)CN([C@@H](C)CO)C(=O)c2cc(NC(=O)Nc3ccc(F)cc3)ccc2O1	0.9
C[C@@H]1CCCCO[C@@H](CN(C)C(=O)Nc2ccc(F)cc2)[C@@H](C)CN([C@H](C)CO)C(=O)c2cc(NC(=O)CCC(F)(F)F)ccc2O1	-1.8
C[C@@H]1CN([C@@H](C)CO)C(=O)c2cc(NC(=O)C3CCCCC3)ccc2O[C@@H]1CN(C)Cc1ccc(Cl)c(Cl)c1	0.4
C[C@@H]1CN([C@@H](C)CO)C(=O)c2cc(NS(C)(=O)=O)ccc2O[C@@H](C)CCCCO[C@@H]1CN(C)C	0.4
C[C@H](CO)N1C[C@H](C)[C@@H](CN(C)S(=O)(=O)c2ccc(Cl)cc2)Oc2ccc(N(C)C)cc2CC1=O	0.2
C[C@@H]1CN([C@@H](C)CO)C(=O)CCCn2cc(nn2)CO[C@H]1CN(C)Cc1ccccc1C(F)(F)F	-1.2
C[C@H]1CCCCO[C@H](CN(C)C(=O)Nc2ccc(F)cc2)[C@@H](C)CN([C@@H](C)CO)C(=O)c2cc(NS(=O)(=O)c3ccccc3)ccc2O1	-0.9
Cc1ccc(S(=O)(=O)Nc2ccc3c(c2)CC(=O)N([C@@H](C)CO)C[C@H](C)[C@H](CN(C)S(=O)(=O)c2cn(C)cn2)O3)cc1	1.1
C[C@H]1CN([C@@H](C)CO)C(=O)CCCn2nncc2CO[C@@H]1CN(C)C(=O)c1ccc2ccn(C)c2c1	-0.4
CC(C)NC(=O)Nc1cccc2c1O[C@H](CN(C)S(=O)(=O)c1cn(C)cn1)[C@@H](C)CN([C@H](C)CO)C2=O	0.0
CNC[C@@H]1OCCCC[C@@H](C)Oc2ccc(NC(=O)Cc3ccccc3)cc2C(=O)N([C@H](C)CO)C[C@@H]1C	0.6
Cc1ccc(S(=O)(=O)N(C)C[C@H]2OCCCC[C@H](C)Oc3ccc(NS(=O)(=O)c4ccccc4)cc3C(=O)N([C@H](C)CO)C[C@@H]2C)cc1	-0.2
C[C@@H]1CN([C@@H](C)CO)C(=O)c2cccc(NS(C)(=O)=O)c2O[C@H]1CN(C)S(=O)(=O)c1ccc(Cl)cc1	-0.4
C[C@@H]1CN([C@H](C)CO)C(=O)c2cccc(NC(=O)c3ccncc3)c2O[C@H]1CN(C)C(=O)Nc1ccc(F)cc1	-1.3
C[C@H]1CN([C@@H](C)CO)C(=O)c2cccc(NC(=O)c3cnccn3)c2O[C@H]1CN(C)Cc1ccc(C(F)(F)F)cc1	-0.4
COc1ccc(NC(=O)Nc2ccc3c(c2)C(=O)N([C@H](C)CO)C[C@H](C)[C@@H](CN(C)S(=O)(=O)c2c(C)noc2C)OCCCC[C@H](C)O3)cc1	0.9

Two successive records out of the list so far, for reference:
SMILES	A1 apoptosis 2
C[C@@H]1CN([C@@H](C)CO)C(=O)c2cccc(NC(=O)Nc3ccc4c(c3)OCO4)c2O[C@H]1CN(C)S(=O)(=O)c1cccs1	-0.1
C[C@@H]1CN([C@@H](C)CO)C(=O)c2cc(NC(=O)CCCN(C)C)ccc2O[C@@H]1CN(C)C(=O)NC1CCCCC1	-1.3

Next part
SMILES	A1 apoptosis 2
C[C@@H]1CN([C@@H](C)CO)C(=O)c2cccc(NC(=O)Nc3ccc(F)cc3)c2O[C@@H]1CN(C)Cc1ccc(C(=O)Nc2ccccc2N)cc1	-3.7
CC(C)NC(=O)N(C)C[C@@H]1OCCCC[C@H](C)Oc2ccc(NC(=O)Nc3ccccc3)cc2C(=O)N([C@@H](C)CO)C[C@H]1C	2.1
C[C@@H]1CN([C@@H](C)CO)C(=O)Cc2cc(NC(=O)Nc3ccc(F)cc3)ccc2O[C@@H]1CN(C)S(=O)(=O)c1ccccc1	0.9
CC(C)NC(=O)Nc1ccc2c(c1)C(=O)N([C@H](C)CO)C[C@@H](C)[C@H](CN(C)Cc1ccc(C(=O)O)cc1)OCCCC[C@@H](C)O2	1.3
CC(C)NC(=O)N(C)C[C@@H]1OCCCC[C@H](C)Oc2ccc(N(C)C)cc2C(=O)N([C@H](C)CO)C[C@H]1C	0.2
C[C@H](CO)N1C[C@H](C)[C@@H](CN(C)S(=O)(=O)c2ccccc2)Oc2ccc(NC(=O)Nc3ccccc3)cc2CC1=O	0.7
C[C@H](CO)N1C[C@H](C)[C@@H](CN(C)C(=O)Nc2ccc(F)cc2)OCCCC[C@H](C)Oc2ccc(NS(=O)(=O)c3cn(C)cn3)cc2C1=O	-0.5
CC(C)NC(=O)Nc1ccc2c(c1)C(=O)N([C@@H](C)CO)C[C@H](C)[C@H](CN(C)S(=O)(=O)c1ccc(F)cc1)OCCCC[C@@H](C)O2	-0.5
C[C@H]1CN([C@@H](C)CO)C(=O)CCCn2cc(nn2)CO[C@H]1CN(C)Cc1ccc2c(c1)OCCO2	-0.4
CNC[C@H]1OCCCC[C@@H](C)Oc2ccc(NC(=O)C3CCCCC3)cc2C(=O)N([C@@H](C)CO)C[C@H]1C	-0.2
Cc1ccc(S(=O)(=O)Nc2cccc3c2O[C@H](CN(C)S(=O)(=O)c2ccc(Cl)cc2)[C@H](C)CN([C@H](C)CO)C3=O)cc1	-0.5
Cc1noc(C)c1NC(=O)Nc1ccc2c(c1)C(=O)N([C@H](C)CO)C[C@@H](C)[C@@H](CN(C)Cc1ccncc1)O2	-0.1
O=C1CSC(c2ccccc2)N1c1ccc(Cl)cc1 (stereo not drawn)	1.4&0.5
C[C@@H]1CN([C@H](C)CO)C(=O)c2cc(NC(=O)CCCN(C)C)ccc2O[C@H]1CN(C)C(=O)Nc1cccc2ccccc12	-0.3
O=C(C1=C[C@@H](c2ccc(Br)cc2)C[C@@H](OCCCCO)O1)N1CCN(Cc2ccccc2)CC1	-0.5
Cc1ccc(S(=O)(=O)Nc2ccc3c(c2)C(=O)N([C@H](C)CO)C[C@@H](C)[C@@H](CN(C)C)OCCCC[C@@H](C)O3)cc1	-0.2
C[C@H]1CN([C@@H](C)CO)C(=O)c2cc(NC(=O)CCC(F)(F)F)ccc2O[C@H]1CN(C)Cc1ccc(C(F)(F)F)cc1	-0.4
COc1ccc(CN(C)C[C@H]2Oc3c(NC(=O)Nc4ccc(OC)cc4)cccc3C(=O)N([C@@H](C)CO)C[C@@H]2C)cc1	-1.8
CC(C)NC(=O)N(C)C[C@H]1Oc2ccc(NC(=O)NC3CCCCC3)cc2CC(=O)N([C@@H](C)CO)C[C@@H]1C	1.4
C[C@@H]1CN([C@H](C)CO)C(=O)c2cccc(NC(=O)c3cnccn3)c2O[C@@H]1CN(C)S(=O)(=O)c1ccc(Cl)cc1	-1.2

By substructure, those above containing an aryl methoxy group (six)
SMILES	A1 apoptosis 2
COc1ccccc1NC(=O)N(C)C[C@@H]1OCc2cn(nn2)CCCC(=O)N([C@@H](C)CO)C[C@H]1C	0.2
COc1ccc(-c2cnc3c(c2)C(=O)N([C@H](C)CO)C[C@H](C)[C@H](CN(C)S(=O)(=O)c2cccc(OC)c2)O3)cc1	0.3
COc1ccc(CN(C)C[C@@H]2Oc3c(NS(=O)(=O)c4cccs4)cccc3C(=O)N([C@H](C)CO)C[C@@H]2C)cc1	0.6
COc1ccc(NC(=O)N(C)C[C@@H]2OCCCC[C@@H](C)Oc3ccc(NC(=O)Nc4ccccc4)cc3C(=O)N([C@H](C)CO)C[C@H]2C)cc1	-0.4
COc1ccc(NC(=O)Nc2ccc3c(c2)C(=O)N([C@H](C)CO)C[C@H](C)[C@@H](CN(C)S(=O)(=O)c2c(C)noc2C)OCCCC[C@H](C)O3)cc1	0.9
COc1ccc(CN(C)C[C@H]2Oc3c(NC(=O)Nc4ccc(OC)cc4)cccc3C(=O)N([C@@H](C)CO)C[C@@H]2C)cc1	-1.8

(next part)
SMILES	A1 apoptosis 2
C[C@@H]1CCCCO[C@@H](CN(C)S(=O)(=O)c2ccccc2)[C@@H](C)CN([C@H](C)CO)C(=O)c2cc(NS(=O)(=O)c3ccccc3)ccc2O1	-0.4
Cc1ccc(S(=O)(=O)N(C)C[C@@H]2OCCCC[C@@H](C)Oc3ccc(NS(=O)(=O)c4ccccc4)cc3C(=O)N([C@H](C)CO)C[C@H]2C)cc1	-1.3
CC(C)NC(=O)Nc1cccc2c1O[C@H](CN(C)Cc1ccc(Oc3ccccc3)cc1)[C@H](C)CN([C@H](C)CO)C2=O	-0.6
CCO[C@H]1OC(C(=O)NCc2ccccc2)=C[C@@H](c2ccc(C(F)(F)F)cc2)[C@@H]1CCCO	0.1
C[C@@H]1CN([C@@H](C)CO)C(=O)c2cc(NC(=O)C3CCCCC3)ccc2O[C@H]1CN(C)C	0.2
O=C1O[C@@H](c2ccccc2)[C@@H](c2ccccc2)N2[C@@H](c3ccc(OCCO)cc3)[C@]3(C(=O)Nc4ccccc43)[C@@H](C(=O)O)[C@H]12	2.9
C[C@H]1CN([C@@H](C)CO)C(=O)c2cc(NC(=O)Nc3cccc4ccccc34)ccc2O[C@@H]1CN(C)C(=O)Nc1ccc2c(c1)OCO2	-0.8
C[C@@H]1CCCCO[C@H](CN(C)C(=O)C2CCCCC2)[C@H](C)CN([C@@H](C)CO)C(=O)c2cc(NS(=O)(=O)c3cccs3)ccc2O1	-1.9
C[C@@H]1CCCCO[C@@H](CN(C)Cc2ccc(C(=O)O)cc2)[C@H](C)CN([C@@H](C)CO)C(=O)c2cc(NC(=O)Cc3ccccc3)ccc2O1	0.3
C[C@H](CO)N1C[C@H](C)[C@H](CN(C)Cc2ccc3c(c2)OCO3)Oc2ccc(NS(=O)(=O)c3cccs3)cc2C1=O	-0.8
C[C@H](CO)N1C[C@H](C)[C@@H](CN(C)C(=O)CCC(F)(F)F)OCCCC[C@H](C)Oc2ccc(N(C)C)cc2C1=O	-0.8
Cn1cc(/C=N/NC(=O)c2cccc(C(=O)NO)c2)c2ccccc21	1.3

These rows are one share of the data; count on the stated rates, not on these rows.
